Screening results as filed in PubChem.
RGS16-Gao HTS: modulates binding between human RGS16 and Galphao; bead-based flow cytometry RGS16-Galphao binding, fluorescence; actives lie on both sides; binding response (% of control), % at 10 µM; AID 1441; 220,000 compounds, 0.38% hits; O15492+P09471;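 active = below 25% or above 175%, edge rows of some plates excepted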;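 also: Galphao activated by GDP with aluminum fluoride before binding; 100% = wells without compound and 0% = beads without RGS; some results beyond the cut were filed as inactive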
Target sequence (O15492 whole entry, looked up): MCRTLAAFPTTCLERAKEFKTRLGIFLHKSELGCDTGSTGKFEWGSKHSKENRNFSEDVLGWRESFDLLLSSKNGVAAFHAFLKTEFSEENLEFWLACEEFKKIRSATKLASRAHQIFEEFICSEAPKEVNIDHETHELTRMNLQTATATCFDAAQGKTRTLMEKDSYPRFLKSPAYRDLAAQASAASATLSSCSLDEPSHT
Target sequence (P09471 whole entry, looked up): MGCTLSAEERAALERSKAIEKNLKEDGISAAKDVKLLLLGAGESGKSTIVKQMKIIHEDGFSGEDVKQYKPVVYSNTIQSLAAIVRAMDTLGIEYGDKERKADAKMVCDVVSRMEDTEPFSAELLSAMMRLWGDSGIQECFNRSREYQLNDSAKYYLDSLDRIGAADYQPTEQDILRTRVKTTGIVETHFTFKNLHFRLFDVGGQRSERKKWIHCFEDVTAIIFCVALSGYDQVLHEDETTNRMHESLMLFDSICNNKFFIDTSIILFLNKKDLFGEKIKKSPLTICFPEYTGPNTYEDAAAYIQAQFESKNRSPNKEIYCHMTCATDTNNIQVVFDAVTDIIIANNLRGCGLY
HSV augment: HSV replication enhancement; HSV replication augmentation in cells, fold increase; maximum fold increase; 220,000 compounds, 0.005% hits; AID 1956;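 active = peak rise of 1.5-fold or more in the series; tested in PC3 cells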;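 also: first round at 10 µM; read as green reporter fluorescence; hits show the peak of a series up to 25 µM; 1 = signal of infected wells without compound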
GALR2 agonist: activates the human galanin receptor 2; O43603; GALR2-expressing cells, agonist activation read-out; activation, %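 (tested at 5 µM)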; 140,000 compounds, 0.48% hits; AID 803;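 active = above mean plus 3 SD of all compounds, about 5% in these data, not always enough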;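 also: 0% = vehicle buffer wells and 100% = reference agonist at full effect; tested in CHO reporter cells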
Target sequence (O43603 whole entry, looked up): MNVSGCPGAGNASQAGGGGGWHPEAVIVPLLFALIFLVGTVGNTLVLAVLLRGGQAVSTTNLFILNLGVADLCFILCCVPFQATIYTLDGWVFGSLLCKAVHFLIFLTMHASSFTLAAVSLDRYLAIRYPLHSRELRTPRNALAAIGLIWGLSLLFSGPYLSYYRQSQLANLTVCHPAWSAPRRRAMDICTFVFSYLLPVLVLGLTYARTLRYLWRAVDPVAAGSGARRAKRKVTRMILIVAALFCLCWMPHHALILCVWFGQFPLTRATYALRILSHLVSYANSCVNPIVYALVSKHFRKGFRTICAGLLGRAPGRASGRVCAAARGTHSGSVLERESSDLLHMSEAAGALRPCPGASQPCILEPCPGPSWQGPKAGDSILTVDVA
Insulin prom inh: TRM-6 insulin promoter activity inhibition; TRM-6 cells (human fetal islet line), insulin promoter-eGFP reporter, imaging; reporter expression induced with tamoxifen; inhibition, % at 2 µM; 130,000 compounds, 0.9% hits;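 active = inhibition above the mean plus 3 SD, with well images judged a real hit on visual review, cut at about 60% in these data, passing the limit was not always enough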
PKD1 inh: blocks activity of human protein kinase D1; Q15139; PKD1 kinase fluorescence polarization assay; inhibition, %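 (about 10 µM by stock and volumes)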; 200,000 compounds, 0.056% hits; AID 797;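 active = inhibition of 50% or more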;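 also: controls were vehicle for no effect and a reference inhibitor for full effect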
Insulin prom inh cell count: further read-out of Insulin prom inh, marked with its call; normalized cell count, %; measured here: cell count, toxicity; reference of the scale not given here;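 cells exposed to compound for 48 h; stained nuclei by imaging scaled within each plate; lower means fewer cells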
HSV augment primary fold: further read-out of HSV augment, marked with its call; fold increase; compound at 10 µM; measured here: primary screen fold increase 10 uM; tested in PC3 cells;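 GFP signal in the first replicate; 1 = infected wells without compound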
An asterisk follows results filed as active; i = inactive; · = no result given; & = joins results of further samples.

SMILES	RGS16-Gao HTS	HSV augment	HSV augment primary fold	GALR2 agonist	Insulin prom inh	Insulin prom inh cell count	PKD1 inh
Cc1ccc(NC(=O)c2ccccc2OCC(=O)Nc2cccc(Cl)c2C)nc1	104	i	0.78	·	-49	116	9
Cc1ccc(S(=O)(=O)NC(=NCC(=O)O)c2ccccc2)cc1	76	i	0.95	-0.1	·	·	-10
O=C(O)CCN(CCC(=O)O)c1nnc(SCc2ccccc2)s1	88	i	0.82	-0.9	9	96	0
CN(C)C(=O)c1cc(C(=O)c2ccc(C(F)(F)F)cc2F)c[nH]1	107	i	1	·	-56	115	-3
C=CCn1c(C2CC2)n[nH]c1=S	95	i	0.99	·	·	·	5
Cn1c(N)c(C(=O)COC(=O)Cn2cc(C(F)(F)F)ccc2=O)c(=O)n(C)c1=O	90	i	0.99	-0.7	-36	71	-2
COc1ccc(S(=O)(=O)N2CCCCC2C(=O)O)cc1 (stereo unspecified)	35	i	1.3	-2.8	72	141	-8
CCN(CC)S(=O)(=O)c1cc(NC(=O)C(CC(C)C)NC(N)=O)ccc1C (stereo unspecified)	105	i	1	·	-12	107	0
Cc1ccccc1C1=Nn2c(nnc2-c2ccco2)SC1	99	i	1	·	·	·	·
CC(=O)c1csc(-c2ccccc2)n1	106	i	1.1	·	33	82	-5
Cc1c(NC(C)c2ccccc2O)c(=O)n(-c2ccccc2)n1C (stereo unspecified)	98	i	1.1	-1.2	29	45	4
CN1CCN(CC(C)(C)NS(=O)(=O)c2ccc(Cl)cc2)CC1	107	i	1	-3.1	·	·	-15
CC(C)CCn1c(SCC(N)=O)nc2c1c(=O)n(C)c(=O)n2C	100	i	0.91	-3.1	·	·	4
Cc1ccc(NC(=O)C2CC(=O)N(c3ccc4c5c(cccc35)CC4)C2)cc1 (stereo unspecified)	105	i	0.99	-0.3	3	103	-6
COc1ccc(-c2cc3nc4ccccc4n3c(N)c2C#N)cc1	98	i	0.89	·	·	·	·
O=C(c1ccccc1)C(Nc1ccccn1)c1ccccc1 (stereo unspecified)	99	i	1.1	·	·	·	0
c1ccc(CN2CCCC3(CCCN(Cc4nc(CC5CC5)no4)C3)C2)cc1 (stereo unspecified)	117	i	0.98	·	·	·	1
Cc1oc2c(CN3CCOCC3)c(O)ccc2c(=O)c1-c1ccc(Cl)cc1	106	i	1.1	·	·	·	·
CC1(C)Cc2nc3n[nH]c(N)c3cc2CO1	103	i	1	-1.2	-5	62	-3
CC(OC(=O)c1cccs1)C(=O)NCC1CCCO1 (stereo unspecified)	100	i	0.98	-2.1	·	·	-9
CCc1ccc(C(=O)NC(CC(C)C)C(=O)O)cc1 (stereo unspecified)	105	i	0.86	-2.2	·	·	1
CC(C)(C)NC(=O)CN(C(=O)C1CSC(=O)C1)c1ccccc1F (stereo unspecified)	101	i	0.96	·	·	·	4
COC(=O)c1ccc(CSc2nnc3ccccn23)o1	109	i	0.82	-2.7	-15	79	6
CCOC(=O)C1=C(C)NC(C)=C(C(=O)OCC)C1c1ccc([N+](=O)[O-])s1	101	i	1.1	·	·	·	·
O=C1CN(CC(=O)Nc2ccc(Cl)cc2)CCN1	106	i	0.92	-4.1	0	129	-11
Cc1ccc(NC(=O)/C(=C/c2cccs2)NC(=O)c2ccco2)c(C)c1	103	i	1	-0.4	-21	80	-2
O=C(Oc1ccccc1)c1ccc(COC(=O)c2cnccn2)cc1	110	·	·	-1.5	53	124	4
O=C(N/N=C/c1ccco1)c1ccc(OCc2ccccc2)cc1	100	i	1	·	·	·	·
COc1ccc(C2OC(=O)CC2C(=O)NC2CCCC(C)C2C)cc1OC (stereo unspecified)	104	i	0.96	-2.9	38	175	-2
CCCCN(c1ccccc1)S(=O)(=O)c1ccc2c(c1)CCN2C(=O)CCC(=O)O	97	i	0.86	-1.1	40	50	9
Cc1nc2ccccn2c1C(=O)N=Nc1c(O)n(CCC(C)C)c2ccccc12	99	i	0.95	1.6	·	·	-14
CN(C)C(=S)Nc1ccc(N2CCOCC2)cc1	98	i	0.94	·	·	·	·
CCn1c(C)cc2c(c1=O)C(c1ccc3c(c1)OCO3)C(C#N)=C(N)O2 (stereo unspecified)	106	i	1.1	-2.9	58	66	-7
CCOc1cc(N2CCOCC2)c(OCC)cc1NC(=O)c1ccccc1	102	i	1	·	46	165	2
O=C(NCC1CCCO1)c1cc2ccccc2[nH]1 (stereo unspecified)	102	i	0.99	-1.4	·	·	-9
Cn1c(=O)c2cc(S(=O)(=O)NCCC(=O)NC3CCCCCC3)ccc2n(C)c1=O	108	i	1	-1.7	23	56	2
O=[N+]([O-])c1ccc(N2CCN(S(=O)(=O)c3ccc4ccccc4c3)CC2)cc1NCc1ccco1	89	i	1	-5.9	·	·	1
Brc1ccc(-c2cnnc(N3CCCC3)n2)cc1	102	i	0.97	-0.3	18	68	2
COc1ccc(N2C(=O)[C@@H]3[C@H](C2=O)[C@H](C(=O)c2ccc(OC(C)=O)cc2)N2N=CC=C[C@@H]32)cc1	111	i	1.1	0.1	-31	105	-8
COc1cc(/C=N/NC(=O)CCC(=O)NCc2ccccc2)cc(OC)c1OC	126	i	0.89	-0.6	-78	41	1
C=CCn1c(-c2cccc([N+](=O)[O-])c2)n[nH]c1=S	97	i	0.87	·	50	104	1
O=C(c1ccccc1)c1ccc(OCCO)cc1	106	i	0.97	·	·	·	-4
C(=N\Nc1nc2ccccc2[nH]1)/C1CCCCC1	111	i	0.99	·	22	93	-3
CC1CCC(NC(=O)CN2C(=O)C3CCCN3c3ncc(Cl)cc32)CC1 (stereo unspecified)	83	i	1.1	-0.8	-14	52	-8
CCCCS(=O)CC(CS(=O)CCCC)OC(=O)c1ccccc1 (stereo unspecified)	91	i	1	-1.2	36	173	0
Cc1c(C(=O)O)oc2c1C(O)CC(C)(C)C2 (stereo unspecified)	104&101	i	0.99&1.1	-2.1&-3.4	17&43	154&65	-10&-2
O=c1[nH]c(SCc2n[nH]c(=S)n2-c2ccccc2)nc2ccccc12	104	i	0.85	0.6	-3	168	-3
CCCCOC(=O)Cn1c2ccc(OC)cc2c2nc3ccccc3nc21	102	i	0.9	-1.9	-19	97	-1
CC1CN(S(=O)(=O)c2cn(C)c(=O)n(C)c2=O)CC(C)O1 (stereo unspecified)	101	i	1.1	-6.0	·	·	-4
O=C1c2[nH]nc(-c3ccccc3O)c2C(c2cccc(Cl)c2)N1Cc1ccco1 (stereo unspecified)	100	i	0.63	-1.6	·	·	-9
COc1ccc2c(c1)c(C(=O)CN1CCN(c3ccccc3)CC1)c(C)n2C	94	i	0.86	·	·	·	·
Cc1ccc2c(c1)-c1c(cnn1CC(=O)N(CCC#N)c1ccccc1)CO2	99	i	0.8	-1.1	·	·	-4
O=C(c1ccccc1Cl)N1CCCC(c2nc3c(nnn3Cc3ccccc3)c(=O)[nH]2)C1 (stereo unspecified)	102	i	1.1	0.6	·	·	-4
CCOC(=O)c1cc(C#N)c(N2CCN(c3ccc(OC)cc3)CC2)[nH]c1=O	101	i	0.87	·	·	·	1
CC(C)=CCN1CCN(Cc2cc(CC(C)C)n[nH]2)CC1CCO (stereo unspecified)	98	i	0.89	·	·	·	·
CCn1cc(C2=NC(CC(C)C)CO2)c2ccccc21 (stereo unspecified)	96	i	0.86	·	·	·	·
CCN(CC)/C(=N/S(=O)(=O)c1ccc(C)cc1)c1ccccc1	102	i	0.73	-2.8	-12	88	1
O=C(Nc1ccc(Cl)cn1)C1CCCN1S(=O)(=O)c1cccc2ccccc12 (stereo unspecified)	105	i	0.81	-1.7	-43	101	-4
C#CCOCCOCCOCCNc1nc(N2CCN(C(=O)[C@H](Cc3cc4ccccc4[nH]3)n3cc(C(N)CC(C)C)nn3)CC2)nc(N2CCN(C(=O)[C@H](CCC(=O)O)n3cc(C(N)[C@H](C)CC)nn3)CC2)n1 (stereo partly specified)	104	i	1.1	·	·	·	8
CCCN(CCC)C(=O)c1ccc2c(c1)N(Cc1ccccc1)C(=O)CS2=O (stereo unspecified)	100	i	0.88	-0.7	-14	169	-11

An excerpt of these results, field by field:
CC1CN(S(=O)(=O)c2cn(C)c(=O)n(C)c2=O)CC(C)O1 (stereo unspecified)
  RGS16-Gao HTS = 101
  HSV augment = i
  HSV augment primary fold = 1.1
  GALR2 agonist = -6.0
  Insulin prom inh = ·
  Insulin prom inh cell count = ·
  PKD1 inh = -4

O=C1c2[nH]nc(-c3ccccc3O)c2C(c2cccc(Cl)c2)N1Cc1ccco1 (stereo unspecified)
  RGS16-Gao HTS = 100
  HSV augment = i
  HSV augment primary fold = 0.63
  GALR2 agonist = -1.6
  Insulin prom inh = ·
  Insulin prom inh cell count = ·
  PKD1 inh = -9

Single values from the results shown.
Value of `CC(C)=CCN1CCN(Cc2cc(CC(C)C)n[nH]2)CC1CCO` (stereo unspecified) under HSV augment primary fold: 0.89
Value of `Cc1c(C(=O)O)oc2c1C(O)CC(C)(C)C2` (stereo unspecified) under GALR2 agonist: -2.1&-3.4
Value of `O=C(Nc1ccc(Cl)cn1)C1CCCN1S(=O)(=O)c1cccc2ccccc12` (stereo unspecified) under GALR2 agonist: -1.7
Value of `Cc1ccc2c(c1)-c1c(cnn1CC(=O)N(CCC#N)c1ccccc1)CO2` under RGS16-Gao HTS: 99
Value of `CCn1cc(C2=NC(CC(C)C)CO2)c2ccccc21` (stereo unspecified) under HSV augment primary fold: 0.86

(next part)
SMILES	RGS16-Gao HTS	HSV augment	HSV augment primary fold	GALR2 agonist	Insulin prom inh	Insulin prom inh cell count	PKD1 inh
COc1cc(NC(=S)Nc2cccc(Cl)c2Cl)c(OC)cc1Cl	99	i	0.93	-3.6	-34	124	-4
COc1cc(OC)cc(C(=O)NC(=S)Nc2ccc(N3CCCC3)cc2)c1	114	i	0.95	-1.6	-19	91	-10
COc1ccc(C(N)CCc2ccc(C)o2)cc1 (stereo unspecified)	62	·	·	-0.2	·	·	-8
CN(C)S(=O)(=O)N1CCN(CC(O)COc2ccc3cc(Br)ccc3c2)CC1 (stereo unspecified)	102	i	0.87	-3.9	17	128	-2
COc1ccc(CCn2c(C)cc(C(=O)CSc3nc(N)cc(=O)[nH]3)c2C)cc1	96	i	1.1	-2.0	28	133	0
CCCN(CCC)Cc1cc(=O)oc2cc3c(cc12)CCC3	96	i	1.1	·	·	·	·
CCCCNC(=O)C(=O)N/N=C/c1ccc(OCC(=O)Nc2cccc(OC)c2)c(OC)c1	110	i	0.94	1.4	-52	112	-4
Cc1c(NC(=O)COC(=O)c2ccccc2Cl)c(=O)n(-c2ccccc2)n1C	104	i	0.99	·	·	·	-1
COC(=O)c1c(NC(=O)c2nc3ccccc3s2)sc2c1CC(C)(C)NC2(C)C	103	·	·	·	·	·	-6
CCOc1ccc2c(c1)n([O-])c1c([n+]2=O)CCCC1	99	i	0.97	-1.0	·	·	2
O=C(c1cn(-c2ccccc2)nc1-c1cccs1)N(CCO)Cc1ccccc1	101	i	0.98	-2.7	-19	103	4
O=c1[nH]c(SCc2ccccc2[N+](=O)[O-])nc2nc[nH]c12	101	i	0.98	·	·	·	·
O=C1CC(c2ccc3c(c2)OCO3)Sc2nc3ccccc3n21 (stereo unspecified)	101	i	1.1	-3.5	·	·	13
CCOC(=O)C1CCN(S(=O)(=O)c2ccc(C)cc2)CC1	101	i	0.98	-1.8	14	72	0
CC1SC(=Nc2ccccc2)N(S(=O)(=O)c2ccccc2)C1=O (stereo unspecified)	120	i	0.96	0.8	38	136	-8
CSc1nc(N2CCCC2)c2c(c1C#N)CC(C)(C)OC2	101	i	0.86	-1.4	-118	112	-8
C/C(=N/NC(=O)Cc1ccccc1)c1ccc(C)s1	102	i	1	-1.9	17	123	-8
CCOCCCNc1nc(=S)[nH]c2cc(OC)c(OC)cc12	71	i	1.1	-1.5	·	·	-5
CC(=O)c1cccc(NC(=O)Cn2nc(-c3ccccc3Cl)ccc2=O)c1	106	i	1	·	·	·	-1
O=C1CSC(c2cccs2)N1c1ccccc1 (stereo unspecified)	100	i	1.1	-1.1	·	·	5
CCCc1ccc(C(=O)/C=C/N(C)C)cc1	83	i	0.94	·	·	·	-8
COc1ccc(CNc2nc(-c3cccnc3)nn2C(=O)c2cccs2)cc1	100	·	·	-0.2	·	·	-3
Cc1cccc2cc3c(N)c(C#N)sc3nc12	96	i	1.1	-2.0	·	·	-4
Cc1ccc(S(=O)(=O)NC(CC(=O)O)c2ccccc2)c(C)c1 (stereo unspecified)	99	i	1.2	-1.4	·	·	-15
COc1ccc(C2N3CC4(C)CN2CC(C)(C3)C4)cc1OC (stereo unspecified)	130	i	0.86	-0.5	31	71	0
Cc1nn(-c2ccccc2)c2c1C(c1ccco1)C(C#N)=C(N)O2 (stereo unspecified)	101	i	1	-3.0	·	·	-10
OC1(c2ccccc2)CCN(Cc2ccccc2)CC1	82	i	1.1	·	25	54	1
